# Screening results (PubChem)
# 2A StopGo: FMDV 2A StopGo reporter, luciferase signal; human cells with a luciferase reporter of 2A StopGo recoding; control for the full effect not named in the record; Potency, µM (highest dose often 57.9 µM), without a hit: top-dose signal change, negative = less light; 1.2% of 410,000 active; AID 1159524; active = well fitted falling curve with a large enough effect; inconclusive = small, poorly fitted or top-dose-only effect; inactive = no such curve, though single readings can be large or run the other way; tested in HEK293T cells; further: on the % scale 0 is the no-effect control and ±100 the full control effect; nearly all actives have a fitted effect of over 45% in size; luciferase light after 4 h
# Cruzain noTriton: inhibitors of Trypanosoma cruzi cruzain without detergent; P25779; purified cruzain, Z-FR-AMC fluorescence, no detergent; Potency, µM, without a hit: max response, negative = inhibition, hits mostly inhibitors; 2.3% of 200,000 active; AID 1476;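 further: plate controls were enzyme without inhibitor for no effect and buffer without enzyme for full effect; nearly all actives have a fitted effect of over 40% in size; top concentration of the series not given in the record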
# Target sequence (P25779 123-467 limits assumed): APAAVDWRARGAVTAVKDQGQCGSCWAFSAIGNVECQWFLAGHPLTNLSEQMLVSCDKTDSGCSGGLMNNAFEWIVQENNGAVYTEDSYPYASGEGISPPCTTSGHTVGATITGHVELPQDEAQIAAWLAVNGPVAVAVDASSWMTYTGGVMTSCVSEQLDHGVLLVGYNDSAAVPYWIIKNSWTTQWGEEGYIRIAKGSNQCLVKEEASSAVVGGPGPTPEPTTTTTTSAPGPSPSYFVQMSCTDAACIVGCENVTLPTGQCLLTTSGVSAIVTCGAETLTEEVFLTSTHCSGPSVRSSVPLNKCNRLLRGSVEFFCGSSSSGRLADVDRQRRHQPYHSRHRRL
#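 Detergent-free condition (0.00005% Triton X-100) in acetate buffer pH 5.5 with DTT. 1.5 nM enzyme and compound were pre-mixed 15 min, then 2 uM Z-FR-AMC substrate added; reaction progress from fluorescence change between first and third reads (60 s).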
# SARS PLP yeast: SARS-CoV PLP inhibition in yeast | S. cerevisiae expressing SARS-CoV PLpro, growth rescue; control for the full effect not named in the record | Potency, µM (top dose mostly 32.9 µM), for inactives: at the highest dose activity, positive = growth rescue | 0.19% of 330,000 active | AID 485353; active means well fitted rising curve with a large enough effect; inconclusive means small, poorly fitted or top-dose-only effect; inactive means no such curve, though single readings can be large or run the other way; further: 0% is about no effect; nearly all actives have a fitted effect of over 55% in size; growth read by luminescence after 48 h
# Marburg entry inh: blocks Marburg virus binding to or entry into cells; Marburg virus pseudotyped entry inhibition, cell reporter; control for the full effect not named in the record; about a third of the inactives were read at about 46 µM; Potency, µM (series often up to 37.8 µM), without a hit: at the highest dose activity change, negative = inhibition, hits mostly inhibitors; 1.8% of 300,000 active; AID 540276; active = well fitted inhibition curve with a large enough effect; inconclusive = small, poorly fitted or top-dose-only effect, or effect the other way; inactive = flat fitted curve, though single readings scatter; tested in HEK293 cells; about a fifth of its hits are not listed in these tables; further: on the % scale 0 is the no-effect control and ±100 the full control effect; luciferase read-out
# Cruzain Triton: inhibitors of Trypanosoma cruzi cruzain with detergent; Potency, µM, for inactives: max response, negative = inhibition, actives largely listed as inhibitors; purified cruzain, Z-FR-AMC fluorescence, 0.01% Triton; 0.43% of 200,000 active;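 further: plate controls were neutral wells for no effect and buffer without enzyme for full effect; nearly all actives have a fitted effect of over 40% in size; top concentration of the series not given in the record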
#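 Sodium acetate buffer (100 mM, pH 5.5) containing 5 mM DTT and 0.01% Triton X-100 hosted 1.5 nM cruzain and test compound for 15 min at room temperature. Cleavage of 2 uM Z-FR-AMC was then tracked by fluorescence.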
# RE007 growth inh: less growth of the S. pombe RE007 Vpr strain | S. pombe RE007 Vpr strain, BacTiter-Glo ATP luminescence, 24 h; control for the full effect not named in the record | Potency, µM (doses to about 92.2 µM), inactives show top-dose activity change, negative = less growth | 0.21% of 360,000 active | AID 651644; active = well fitted falling curve with a large enough effect; inconclusive = small, poorly fitted or top-dose-only effect; inactive = no such curve, though single readings can be large or run the other way;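 further: on the % scale 0 is the no-effect control and ±100 the full control effect; nearly all actives have a fitted effect of over 50% in size; the assay follows cell death caused by Vpr and the record does not say whether a fall means rescue or toxicity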
#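 Fission yeast RE007 carrying one integrated HIV-1 vpr copy, seeded at OD 0.01 in PMG+AL medium with 23 nL pinned compound. Grown 24 h at 30 degrees; viability read by BacTiter-Glo luminescence after 5 min.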
# LASV entry inh: Lassa virus entry inhibition. 1.2% of 300,000 active. Potency, µM (top dose mostly 37.9 µM), for the others: top-dose activity change, negative = inhibition, actives largely listed as inhibitors. Lassa virus pseudotype entry inhibition, cell reporter; control for the full effect not named in the record. AID 540256; active means well fitted inhibition curve with a large enough effect; inconclusive means small, poorly fitted or top-dose-only effect, or effect the other way; inactive means flat fitted curve, though single readings scatter; tested in HEK293 cells; further: on the % scale 0 is the no-effect control and ±100 the full control effect; nearly all actives have a fitted effect of over 50% in size; luciferase read-out
# NS1 function inh: blocks influenza NS1 protein function. 0.4% of 270,000 active. S. cerevisiae slowed by influenza A NS1, growth recovery by OD600. Potency, µM (doses to about 46.1 µM), for inactives: at the highest dose activity, positive = more growth. AID 2326; active means well fitted rising curve with a large enough effect; inconclusive means small, poorly fitted or top-dose-only effect; inactive means no such curve, though single readings can be large or run the other way; further: nearly all actives have a fitted effect of over 50% in size
#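 OD600 was taken as the measure of yeast growth restored by compound in an NS1-expressing S. cerevisiae strain. Cells had been washed out of glucose medium and diluted 1:100 into galactose -URA medium, pH 6.0.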
# * hit, by the source's call; ? = inconclusive; / = not tested or not shown; & = joins results of further samples; [ ] = remark or other dose. Unless noted, the call rests on the fitted dose curve; in most records, active means well fitted curve in the direction sought with a large enough effect; inconclusive means small, poorly fitted or top-dose-only effect, or another doubt; inactive means no such curve, though single readings can be large; an effect the other way counts as inactive or inconclusive. Potency means the concentration at half of the fitted maximal effect. No enrichment for hits, and some 4.6% of all compounds hit somewhere here.
SMILES,2A StopGo,Cruzain noTriton,SARS PLP yeast,Marburg entry inh,Cruzain Triton,RE007 growth inh,LASV entry inh,NS1 function inh
CCOC(=O)C(C#N)=CN1CCNc2ccccc21,44%[activator],/,/,?,/,-10%,-1%[46.1 µM],/
Cc1c(-c2nnc(SCC(=O)Nc3ccc(Br)cc3)o2)nnn1-c1ccc(F)cc1,-22%,5%,/,/,-1.5%,/,16%[46.1 µM],/
O=C(Nn1cnnc1)c1ccc(F)c(S(=O)(=O)N2CCCCC2)c1,-9%,-7%,3%,0%,-0.1%,18%,9%,-5%
CCOc1cc(/C=N\NC(=O)c2ccc(NC(=O)C(C)(C)C)cc2)ccc1OC(=O)c1ccc(OC)cc1,-27%,-13%,-5%,-1%,2.2%,0%,-14%,18%
CC(C(=O)N1CCOCC1)n1cc([N+](=O)[O-])cn1 (stereo not given),1%,/,3%,-11%[46.1 µM],/,8%,6%,/
O=C(NC1CCCc2c1cnn2-c1cc(F)cc(F)c1)c1ccncc1 (stereo not given),0%,/,-3%,/,/,1%,/,-4%
CC(=O)C(CC(=O)N1CCCc2ccccc21)C(=O)Nc1ccc(F)cc1 (stereo not given),-24%,11%,7%,-1%[46.1 µM],-0.9%,21%,-5%,-11%
COc1ccc(-c2cn3nc(SCC(=O)Nc4cccc(C)c4C)ccc3n2)cc1,-1%,10%,/,/,2.2%,/,0%[46.1 µM],/
Fc1ccc(OCCn2cnc(Cl)c2Cl)cc1,1%,/,1%,/,/,27%,/,-6%
Cc1ccc(-c2nn(C)c(=O)c3ccccc23)cc1CNC(=O)NC1CCCCC1,?,/,0%,5%,/,-4%,?,-1%
C=CCSc1nnc2c(n1)OC(C)=Nc1ccc(Br)cc1-2,8%,/,0%,/,/,-8%,/,-2%
CCOc1ccc(NC(=S)NC(=O)/C=C/c2ccc(Br)cc2)c([N+](=O)[O-])c1,12%,/,0%,-24%,/,-2%,21µM*,-3%
Cc1ccc2sc(N(CCCN(C)C)C(=O)CN3C(=O)c4ccccc4C3=O)nc2c1C,-23%,/,0%,?,/,6%,?,/
CC(Oc1ccc(Br)cc1)C(=O)Nc1ccc(S(=O)(=O)N(C)C2CCN(C)CC2)cc1 (stereo not given),-8%,/,3%,?,/,1%,?,/
Cc1ccc(SC(C)C(=O)NCc2ccncc2)cc1 (stereo not given),-4%,/,0%,-22%,/,-9%,-10%,/
CCCC(=O)Nc1cc2c3c(c1)CCN3C(=O)CC2,2%,/,0%,/,/,4%,/,1%
Cc1ccc(S(=O)(=O)N2CCN(c3ncnc4scc(-c5ccccc5)c34)CC2)cc1,-5%,/,1%,?,/,13%,11µM*,/
CCc1ccc(NC(=O)C(NS(=O)(=O)c2cccs2)C(C)C)cc1 (stereo not given),-15%,7%,/,-36%[46.1 µM],-3.3%,/,1%[46.1 µM],/
COc1ccc(-c2csc(NC(=O)Cc3ccccc3)n2)cc1OC,9%,/,6%,/,/,10%,/,12%
CCCC(=O)C1=C(SCC)CC(C)(C)C(C(=O)OC)C1=O (stereo not given),?,-4%,6%,-1%,0.3%,9%,14%,-5%
CCNC(=O)OCc1cn(-c2ccccc2)nn1,28%,/,-1%,?,/,36%,?,/
Cc1ccc(S(=O)(=O)c2cc3c(=O)n4cccc(C)c4nc3n(C3CCCCC3)c2=N)cc1,-5%,/,0%,9%[46.1 µM],/,-18%,1%[46.1 µM],0%
Cc1cc(C)c(C)c(S(=O)(=O)NC2CCN(Cc3ccccc3)CC2)c1C,49%[activator],/,-2%,?,/,2%,1%[46.1 µM],/
Cc1ccccc1-c1nn2c(-c3ccccc3)nnc2s1,-12%,-3%,-8%,2%,-12%,0%,4%,-9%

# Complete entries as entered above.
# CCNC(=O)OCc1cn(-c2ccccc2)nn1 in the list: 2A StopGo: 28%; Cruzain noTriton: /; SARS PLP yeast: -1%; Marburg entry inh: ?; Cruzain Triton: /; RE007 growth inh: 36%; LASV entry inh: ?; NS1 function inh: /
# Cc1cc(C)c(C)c(S(=O)(=O)NC2CCN(Cc3ccccc3)CC2)c1C in the list: 2A StopGo: 49%[activator]; Cruzain noTriton: /; SARS PLP yeast: -2%; Marburg entry inh: ?; Cruzain Triton: /; RE007 growth inh: 2%; LASV entry inh: 1%[46.1 µM]; NS1 function inh: /

# The listing continues:
SMILES,2A StopGo,Cruzain noTriton,SARS PLP yeast,Marburg entry inh,Cruzain Triton,RE007 growth inh,LASV entry inh,NS1 function inh
CCCNC(=O)c1ccccc1NC(=O)c1ccccc1N(C)S(C)(=O)=O,-8%,1%,-6%,-9%[46.1 µM],0.1%,2%,3%,-17%
CCC(C(=O)NCc1ccco1)N(C(=O)CNS(=O)(=O)c1ccccc1)C1CCCCC1 (stereo not given),/,-3%,-12%,-13%,0.8%,6%,-10%,-1%
CCCN1CCN(c2ncnc3sc(C(=O)Nc4ccc(C(C)C)cc4)c(C)c23)CC1,?,26%,/,/,-2.6%,/,15%[46.1 µM],/
Cc1cccc(-n2c(SCC(=O)Nc3ccc4c(c3)OCO4)nnc2-c2ccoc2C)c1,5%,-23%,-14%,-29%,-0.3%,13%,1%,-1%
C=CCNC(=O)c1cn(CC)c2cc(N3CCN(C(=O)c4ccco4)CC3)c(F)cc2c1=O,?,/,-6%,/,/,4%,/,-12%
Cc1ccc(S(=O)(=O)CC(=O)c2ccc([N+](=O)[O-])cc2)cc1,19%,/,1%,/,/,7%,/,-5%
Cc1cccc(N2CCN(C(=O)c3cccc(S(=O)(=O)N4CCc5ccccc5C4)c3)CC2C)c1 (stereo not given),?,-20%,3%,?,-1.5%,1%,-47%,20%
COCCCn1c(C(=O)NC2CCCCC2C)cc2c(=O)n3cccc(C)c3nc21 (stereo not given),-17%,/,1%,/,/,7%,/,0%
CCC1CCCCN1CCCNC(=O)CN1C(=O)c2cccnc2Oc2ccc(Cl)cc21 (stereo not given),-12%&7%,/,-1%,/,/,-9%,21%[46.1 µM],-1%
COc1ccc(C)cc1NC1(c2ccccc2)C(=O)c2ccccc2C1=O,0%,?,/,/,-5.0%,/,4%[46.1 µM],/
O=C(CCC1CCCN(C(=O)CCN2CCCCC2=O)C1)NCc1ccccc1F (stereo not given),8%,/,1%,1%[46.1 µM],/,-4%,11%[46.1 µM],-2%
O=C(c1c[nH]c(C(=O)C(Cl)(Cl)Cl)c1)c1ccc(F)cc1Cl,?,/,1%,?,/,2%,-5%,1%

# Among those listed so far, two contain two or more sulfur atoms.
SMILES,2A StopGo,Cruzain noTriton,SARS PLP yeast,Marburg entry inh,Cruzain Triton,RE007 growth inh,LASV entry inh,NS1 function inh
Cc1ccc(S(=O)(=O)N2CCN(c3ncnc4scc(-c5ccccc5)c34)CC2)cc1,-5%,/,1%,?,/,13%,11µM*,/
CCc1ccc(NC(=O)C(NS(=O)(=O)c2cccs2)C(C)C)cc1 (stereo not given),-15%,7%,/,-36%[46.1 µM],-3.3%,/,1%[46.1 µM],/

# Following part
SMILES,2A StopGo,Cruzain noTriton,SARS PLP yeast,Marburg entry inh,Cruzain Triton,RE007 growth inh,LASV entry inh,NS1 function inh
CCOC(=O)c1c(NC(=O)CN2C(=O)NC(C)(c3ccccc3)C2=O)sc(C)c1C (stereo not given),?,4%,15%,?,-5.6%,0%,?,12%
O=C(Nc1ccccc1C(=O)N1CCCCC1)c1nsc2ccccc12,20%,-4%,/,/,-4.5%,/,5%[46.1 µM],/
Cc1ccc(SCc2[nH]nc3c2C(C(C)C)C(C#N)=C(N)O3)cc1 (stereo not given),0%,4%,0%,5%,-7.7%,0%,12%,17%
CCCOc1ccc(-c2nc(=S)[nH][nH]2)cc1,46%[activator],7%,20%,?,6.5%,-9%,2%,12%
Cc1ccc(/C=C2\SC(=S)N(CCC(=O)NNC(=O)c3cccnc3)C2=O)cc1,11%,-11%,6%,-3%,-2.6%,7%,-1%,9%
COc1ccnc(Oc2ccccc2)c1C(=O)N/C=N/OCc1ccc(F)cc1Cl,/,?,-39%,?,-4.4%,28%,?,-2%
O=c1[nH]c(=O)n(-c2cccc3ccccc23)c(O)c1C=NCc1ccc2c(c1)OCO2,?,?,13%,21%,0.1%,-14%,15%,26%
CCN1CN(Cc2ccccc2)CNC1=S,-2%,3%,21%,?,-3.4%,-14%,11%,-3%
Cc1cc(NC(=O)CSc2cc(Cl)ccc2Cl)n(-c2ccccc2)n1,-20%,14%,-3%,/,-2.1%,3%,/,-4%
Cc1ccc(S(=O)(=O)N2CCC(C(=O)N[C@@H](Cc3ccccc3)C(=O)O)CC2)cc1,9%,-5%,3%,?,-0.9%,-12%,6%,1%
COc1ccccc1Cc1nnc(NC(=O)C2CCN(C(=O)c3ccco3)CC2)s1,-26%,/,0%,-15%[46.1 µM],/,-7%,-20%,-12%
O=C(N/C(=C\c1ccccc1)C(=O)N1CCCCCC1)c1ccccc1,38%[activator],/,0%,12%[14.2 µM],/,4%,-2%,-4%
COc1ccc(/C=C2/N=C3CCCCCN3C2=O)cc1OC,22%,-9%,10%,16%,-4.6%,8%,6%,1%
CCCCCn1c(=O)c(C(=O)Nc2ccccn2)c(O)c2ccccc21,-17%,/,-3%,/,/,-2%,/,5%
Cc1ccc(S(=O)(=O)c2c(N)n(Cc3ccco3)c3nc4ccccc4nc23)cc1C,41%[activator],23%,-2%,?,-3.9%,-9%,-9%,?
Cc1ccc(S(=O)(=O)c2nc(C)oc2NCc2ccccc2)cc1,/,20µM*,0%,1%,20µM*,/,/,-4%
CCNC(=S)N/N=C/c1cc(C)ccc1C,-9%,5%,?,9%,-9.0%,-18%,-1%,-3%
COc1ccc(NC(=O)C(C)N2C(=O)C3CC=C(Cl)CC3C2=O)cc1 (stereo not given),-3%,/,-5%,-17%,/,-25%,?,16%
COc1cc(/C=N/N=C2/NC(=O)C(Cc3ccc(F)cc3)S2)ccc1O (stereo not given),3%,/,0%,?,/,-25%,?,/
O=C(Nc1ccc(C(=O)O)cc1)/C(=C\c1ccc2c(c1)OCO2)NC(=O)c1ccc(Br)cc1,-12%,/,1%,?,/,-29%,1%,22%
